Rce1 inh: yeast Rce1p protease inhibitors, primary screen, biochemical, fluorescence, cell-free homogeneous | CAAX prenyl protease 2 (Saccharomyces cerevisiae (strain ATCC 204508 / S288c)), Q03530 | yeast membranes, quenched prenylated peptide cleavage fluorescence | calls only | actives 0.27% (n = 290,000) | AID 2563, 2010;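 active means fall in fluorescence gain of 50% or more versus controls, with final raw signal at or below 3038400; inconclusive means same 50% fall but final raw signal above 3038400; inactive means fall in fluorescence gain under 50%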;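 further: plate controls were neutral control wells for no effect and wells lacking membranes for full effect; tested at 10 µM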
UUG fidelity: modulators of yeast start codon fidelity, primary screen, whole organism, S. cerevisiae, single point, plate reader. S. cerevisiae UUG-firefly luciferase reporter, luminescence/redox ratio. activity score, % at 18.7 µM. actives 0.13% (n = 350,000). AID 602363, 2012;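 active means replicate mean at a twofold rise or more, about +100% in these data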;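 further: firefly luciferase made from a UUG start codon reports start codon fidelity; reporter light over untreated wells divided by growth signal over untreated wells; some hits fall short of that in this replicate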
eIF4H inh: human eIF4H binding inhibitors, primary screen, translation initiation inhibitor project, biochemical, uHTS, fluorescence polarization; eIF4H fluorescence polarization binding assay; inhibition, % at 35 µM; actives 0.94% (n = 290,000);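 active means 50% or more with normal probe brightness, or confirmed in later tests; inconclusive means above 50% with abnormal brightness, or retests that disagree; inactive means below 50% or failed in later tests; about a fifth of its hits are not listed in these tables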;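 further: calls also rest on retests at 20 µM and on dose response follow-up; 0% = protein and probe with vehicle and 100% = probe without protein; strong numbers were not always called active; many hits fall short of the cut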
MT1-MMP act inh: blockers of MT1-MMP proenzyme processing, primary screen, HT1080 RFP-PRO-GFP cells, GFP/RFP fluorescence; Matrix metalloproteinase-14 (Homo sapiens), P50281; GFP/RFP ratio fluorescence, overnight; percent of plate control window, DMSO zero; GFP/RFP ratio change, % at 20 µM; actives 0.061% (n = 360,000); AID 651647, 2012;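 active means GFP/RFP ratio change of at least 30% with cell ATP level not reduced by more than half and red fluorescence within 50% of control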; further: strong numbers were not always called active
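Compound: 20 µM single dose, 1% DMSO / System: HT1080 RFP-PRO-GFP cells / Controls: DMSO and RFP-L50D-GFP cell wells / Read-out basis: GFP/RFP fluorescence ratio / Schedule: overnight compound exposure at 37 °C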
HIV Env fusion: inhibitors of HIV-1 Env-driven cell-cell fusion, primary screen, HeLa-JRFL effector, CEM21 target cells, luciferase; actives 1.1% (n = 360,000); inhibition, % at 12.3 µM;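 active means mean replicate inhibition score of at least 50 and every replicate individually at or above 50; inconclusive means only one of the two criteria met; inactive means mean below 50 and not all replicates reaching 50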;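 further: 0% = plate neutral controls and 100% = maraviroc near 300 nM; one replicate is shown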
PABP FP inh: PABP poly(A) RNA binding inhibitors, primary screen, biochemical, fluorescence polarization, uHTS | Polyadenylate-binding protein 1 (Homo sapiens), P11940 | inhibition, % at 35 µM | actives 1% (n = 290,000) | AID 2014, 2009;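 active means 50% or more with normal probe brightness, or confirmed in later tests; inconclusive means above 50% with abnormal brightness, or retests that disagree; inactive means below 50% or failed in later tests; about a fifth of its hits are not listed in these tables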;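 further: calls also rest on retests at 20 µM and on dose response follow-up; controls were probe without protein and protein plus probe with vehicle; some compounds called inactive have numbers as strong as hits; many hits fall short of the cut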
Target sequence (P11940 whole entry, looked up): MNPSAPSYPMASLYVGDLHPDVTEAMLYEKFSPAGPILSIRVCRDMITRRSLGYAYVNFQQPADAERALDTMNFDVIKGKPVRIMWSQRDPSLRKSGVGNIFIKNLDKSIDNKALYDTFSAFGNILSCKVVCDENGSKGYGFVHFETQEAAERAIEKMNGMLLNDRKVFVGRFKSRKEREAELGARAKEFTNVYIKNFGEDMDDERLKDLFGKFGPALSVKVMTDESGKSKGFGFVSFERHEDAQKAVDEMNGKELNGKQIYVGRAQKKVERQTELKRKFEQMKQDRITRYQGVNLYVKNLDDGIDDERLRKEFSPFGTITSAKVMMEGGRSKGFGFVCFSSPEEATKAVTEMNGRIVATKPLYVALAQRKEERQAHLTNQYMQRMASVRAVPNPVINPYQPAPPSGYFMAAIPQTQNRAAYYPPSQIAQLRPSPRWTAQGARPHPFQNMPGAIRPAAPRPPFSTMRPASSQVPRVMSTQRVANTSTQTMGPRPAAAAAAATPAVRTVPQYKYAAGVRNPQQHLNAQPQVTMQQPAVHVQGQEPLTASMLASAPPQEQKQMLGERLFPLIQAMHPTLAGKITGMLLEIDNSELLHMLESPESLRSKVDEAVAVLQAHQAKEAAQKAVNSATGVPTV
CSC inhib: cancer stem cell viability inhibitors, primary screen, luminescence; cancer stem cell-like cells viability; inhibition, % at 7.5 µM; actives 1.1% (n = 300,000);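 active means mean at 75% or more and at least half the replicates too; inconclusive means mean and replicates disagree; tested in HMLE shEcad cells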;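 further: 0% = median of negative and 100% = median of positive control wells; the first replicate is given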
eIF4H inh retest: recorded beside eIF4H inh, whose call it bears; inhibition, %; compound at 20 µM; confirmation average;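 mean of two retest wells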
PABP FP inh retest: second read-out of PABP FP inh, no call of its own (marks repeat the call); inhibition, %; compound at 20 µM; confirmation repeats;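 mean of two retest wells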
MT1-MMP act inh RFP: recorded beside MT1-MMP act inh, whose call it bears; RFP signal change, %; measured here: RFP expression control read;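 0 = vehicle wells; hits needed this value within 50% of zero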
Numbers without * were called inactive; i = inactive; ? = inconclusive; nt = no result given; & = joins results of further samples; [ ] = another dose, or the depositor's remark. Only part of the results is shown; count on the stated rates, not on these rows.

SMILES	Rce1 inh	UUG fidelity	eIF4H inh	MT1-MMP act inh	MT1-MMP act inh RFP	HIV Env fusion	PABP FP inh	CSC inhib	others
CCOC(=O)c1ccccc1NC(=O)COC(=O)CCNS(=O)(=O)c1ccc(C)c(C)c1	i	7	nt	-1	2	nt	nt	nt
Cc1c(C(=O)O)oc2c1C(O)CC(C)(C)C2 (configuration not stated)	i	-32&-16	-5&1	-2&1	0&1	-17	23&1	-18&-7
CCN(CC(=O)NCc1ccc(F)cc1)C(=O)c1oc2ccccc2c1C	i	-10	-4	-2	-3	2	-2	4
CCCCS(=O)CC(CS(=O)CCCC)OC(=O)c1ccccc1 (configuration not stated)	i	-14	-7	-2	-1	-82	6	12
C#CCOCCOCCOCCNc1nc(N2CCN(C(=O)[C@H](Cc3cc4ccccc4[nH]3)n3cc(C(N)CC(C)C)nn3)CC2)nc(N2CCN(C(=O)[C@H](CCC(=O)O)n3cc(C(N)[C@H](C)CC)nn3)CC2)n1 (some centres not stated)	i	3	7	9	3	nt	8	-6
CCCN(CCC)C(=O)c1ccc2c(c1)N(Cc1ccccc1)C(=O)CS2=O (configuration not stated)	i	5	-9	-1	-1	-8	-9	-3
CCOC(=O)c1c(S(=O)(=O)N2CCCCCC2)c(C)n(C)c1C	i	3	-8	1	-3	9	2	-3
O=C(Nc1ccc(Cl)cn1)C1CCCN1S(=O)(=O)c1cccc2ccccc12 (configuration not stated)	i	-15	1	-9	-8	70*	2	16
Cc1ccc(C(=O)NCC(=O)OCC(=O)N(CC(C)C)c2c(N)n(Cc3ccccc3)c(=O)[nH]c2=O)s1	nt	-6	nt	-2	2	-6	nt	nt
COc1ccc(C(N)CCc2ccc(C)o2)cc1 (configuration not stated)	i	0	87	-8	11	nt	38*	5	eIF4H inh retest=32;PABP FP inh retest=77*
COc1cc(OC)cc(C(=O)NC(=S)Nc2ccc(N3CCCC3)cc2)c1	i	-34	2	nt	nt	-4	37	-2
C=C[C@@H]1c2cc(C)ccc2N(S(=O)(=O)c2ccc(C)cc2)[C@H](c2ccc(OC(C)=O)cc2)C1(C#N)C#N	nt	-12	nt	0	-23	-2	nt	113*
COc1cc(NC(=S)Nc2cccc(Cl)c2Cl)c(OC)cc1Cl	i	-15	-12	9	5	nt	-5	9
O=C(NNC(=O)C12CC3CC(CC(O)(C3)C1)C2)c1csc(N2CCOCC2)n1	i	-8	7	1	2	nt	6	-11
O=C(NCCC(=O)N1CCN(c2ccccc2O)CC1)c1ccc(Cl)cc1	i	nt	nt	-3	2	3	nt	-1
Cc1ccc2c(c1)-c1c(cnn1CC(=O)N(CCC#N)c1ccccc1)CO2	i	3	2	-1	0	15	1	-1
Cc1nn(Cc2ccccc2Cl)c(C)c1NC(=O)c1noc(C(C)C)c1[N+](=O)[O-]	i	-11	2	nt	nt	8	9	nt
CC(C)=CCN1CCN(Cc2cc(CC(C)C)n[nH]2)CC1CCO (configuration not stated)	i	-2	34	-1	5	7	28	6
CCn1cc(C2=NC(CC(C)C)CO2)c2ccccc21 (configuration not stated)	i	nt	-8	1	-6	0	-5	nt
CCN(CC)/C(=N/S(=O)(=O)c1ccc(C)cc1)c1ccccc1	i	-5	-6	-4	2	2	5	-7
CCOC(=O)c1cc(C#N)c(N2CCN(c3ccc(OC)cc3)CC2)[nH]c1=O	i	-4	-4	nt	nt	1	2	-3
O=C(CCCOc1ccc(Cl)cc1Cl)NCCc1nnc2ccccn12	i	nt	-11	3	2	2	-2	-17
CCCCN(C(=O)c1ccco1)C1CCS(=O)(=O)C1 (configuration not stated)	i	-5	nt	-2	2	nt	nt	-5
O=C(c1ccccc1Cl)N1CCCC(c2nc3c(nnn3Cc3ccccc3)c(=O)[nH]2)C1 (configuration not stated)	i	nt	1	2	-3	nt	4	-4
Cc1cc[n+](CC(=O)c2cccc([N+](=O)[O-])c2)c2ccccc12	i	-19	15	0	6	-15	18	-19
CSCCC(NC(=O)c1ccccc1)C(=O)N1CC(C)OC(C)C1 (configuration not stated)	nt	6	nt	3	5	nt	nt	-2
COc1ccccc1CNC(=O)Cn1cccc1C(=O)c1ccccc1C	i	-19	nt	-3	3	-11	nt	-4
CCOc1cc(N2CCOCC2)c(OCC)cc1NC(=O)c1ccccc1	i	-19	-7	5	1	16	4	-10
O=C(NCC1CCCO1)c1cc2ccccc2[nH]1 (configuration not stated)	i	-3	-7	0	3	nt	-2	-6
CCc1ccc(N(CC)C(=O)Cc2c(C(=O)O)n(C)c3ccccc23)cc1	i	-7	-8	-2	4	3	2	-2
CCCCN(c1ccccc1)S(=O)(=O)c1ccc2c(c1)CCN2C(=O)CCC(=O)O	i	nt	-12	-2	-1	4	0	0
O=C(Nc1ccccn1)c1ccc(Cl)c(S(=O)(=O)N2CCc3ccccc32)c1	nt	4	nt	8	-31	6	nt	nt
CCn1c(C)cc2c(c1=O)C(c1ccc3c(c1)OCO3)C(C#N)=C(N)O2 (configuration not stated)	i	-19	8	-4	0	34	2	0
Cc1nc2ccccn2c1C(=O)N=Nc1c(O)n(CCC(C)C)c2ccccc12	i	-11	-6	-17	-24	26	4	nt
CN(C)C(=S)Nc1ccc(N2CCOCC2)cc1	i	-50	7	3	3	-15	-5	-15
Clc1ccc(Cn2ncc3c(N4CCN(c5ccccc5)CC4)ncnc32)cc1	nt	9	nt	-26	-22	36	nt	nt
COc1ccc(N2C(=O)[C@@H]3[C@H](C2=O)[C@H](C(=O)c2ccc(OC(C)=O)cc2)N2N=CC=C[C@@H]32)cc1	i	nt	-3	nt	nt	nt	-8	2
CCOc1cc(C2C3=C(CC(C)(C)CC3=O)N(CCOC)C3=C2C(=O)CC(C)(C)C3)ccc1O	i	-12	-4	-3	-1	11	-1	-14
COC(=O)c1cc(S(=O)(=O)NCc2ccccc2Cl)c[nH]1	i	-8	1	3	0	nt	-7	-10
C=CCn1c(-c2cccc([N+](=O)[O-])c2)n[nH]c1=S	i	-16	4	-1	2	14	4	-2
CC(NS(=O)(=O)c1ccc2[nH]c(=O)[nH]c2c1)c1ccc(F)cc1 (configuration not stated)	nt	4	nt	-1	-2	8	nt	nt
Cc1ccc(-c2cc(C(=O)N3CCOCC3)c3ccccc3n2)o1	nt	nt	nt	-3	0	-6	nt	-1
COc1cc(/C=N/NC(=O)CCC(=O)NCc2ccccc2)cc(OC)c1OC	i	-7	-3	1	5	9	1	7
CCc1ccc(/C=N/NC(=O)c2nnn(-c3nonc3N)c2C(C)C)cc1	i	-15	-22	1	-1	-10	-3	-3
Cn1c(=O)c2cc(S(=O)(=O)NCCC(=O)NC3CCCCCC3)ccc2n(C)c1=O	i	nt	-1	5	2	8	7	3
COC(=O)C1=CN(Cc2ccccc2)C=C(C(=O)OC)C1c1ccc(OC)c(OC)c1	nt	14	-11	4	-5	8	-2	-2
O=[N+]([O-])c1ccc(N2CCN(S(=O)(=O)c3ccc4ccccc4c3)CC2)cc1NCc1ccco1	i	-25	-4	2	-2	nt	-10	nt
Brc1ccc(-c2cnnc(N3CCCC3)n2)cc1	i	-8	11	-23	1	nt	21	15
O=C(NCCc1c[nH]c2ccccc12)c1cccc(Br)c1	i	-7	0	1	-1	-2	6	10
COc1ccc(-c2cc3nc4ccccc4n3c(N)c2C#N)cc1	i	nt	-11	3	-6	-280	-58	9
Next entries.
SMILES	Rce1 inh	UUG fidelity	eIF4H inh	MT1-MMP act inh	MT1-MMP act inh RFP	HIV Env fusion	PABP FP inh	CSC inhib	others
C[C@@H]1CN([C@@H](C)CO)S(=O)(=O)c2ccc(-c3ccc(C(=O)N(C)C)cc3)cc2O[C@@H]1CN(C)Cc1ccccc1C(=O)O	nt	-10&5	nt	3	5	5[16.7 µM]	nt	nt
Cc1ccc(NC(=O)C2CC(=O)N(c3ccc4c5c(cccc35)CC4)C2)cc1 (configuration not stated)	i	2	-6	-3	-3	-63	-7	6
CS(=O)(=O)N1CCC(NC(=O)Nc2ccc(OC(F)(F)F)cc2)CC1	nt	-14	nt	-2	3	0	nt	-6
O=C(COC(=O)C1=COCCO1)Nc1ccc(F)cc1	i	-29	nt	1	-4	nt	nt	5
CC(C)(C)NC(=O)CN(C(=O)C1CSC(=O)C1)c1ccccc1F (configuration not stated)	i	nt	-7	-3	1	6	14	-13
CC1(C)Cc2nc3n[nH]c(N)c3cc2CO1	i	-21	0	15	4	-12	4	0
CC(OC(=O)c1cccs1)C(=O)NCC1CCCO1 (configuration not stated)	i	nt	7	5	-3	12	-1	nt
CCc1ccc(C(=O)NC(CC(C)C)C(=O)O)cc1 (configuration not stated)	i	4	1	3	3	-34	1	2
Cc1oc2c(CN3CCOCC3)c(O)ccc2c(=O)c1-c1ccc(Cl)cc1	i	0	-3	-4	-1	9	4	8
CC(=O)c1sc(NC(=O)CCc2ccccc2)nc1C	nt	-6	nt	0	2	-42	nt	nt
COc1ccc(-c2ccc3c(c2)S(=O)(=O)c2cccc(C(=O)NCCOc4ccccc4Cl)c2C3=O)cc1OC	nt	-7	nt	6	-6	?	nt	nt
O=C(c1ccccc1)C(Nc1ccccn1)c1ccccc1 (configuration not stated)	i	nt	-7	1	1	12	3	5
c1ccc(CN2CCCC3(CCCN(Cc4nc(CC5CC5)no4)C3)C2)cc1 (configuration not stated)	i	nt	-1	4	0	13	-7	23
CCN(CC)S(=O)(=O)c1cc(NC(=O)C(CC(C)C)NC(N)=O)ccc1C (configuration not stated)	i	5	-15	-3	-2	45	16	-4
COc1ccc(S(=O)(=O)N2CCCCC2C(=O)O)cc1 (configuration not stated)	i	-9	3	1	2	nt	-3	1
Cn1c(N)c(C(=O)COC(=O)Cn2cc(C(F)(F)F)ccc2=O)c(=O)n(C)c1=O	i	-6	4	7	4	nt	-1	-1
O=C(NC1CCN(C(=S)Nc2ccc(F)cc2)CC1)C1CCCCC1	i	-1	2	-1	-5	0	3	-13
CC(C)CCn1c(SCC(N)=O)nc2c1c(=O)n(C)c(=O)n2C	i	-10	2	-2	3	41	5	4
Cc1c(NC(C)c2ccccc2O)c(=O)n(-c2ccccc2)n1C (configuration not stated)	i	4	-11	10	0	nt	-3	-3
CN1CCN(CC(C)(C)NS(=O)(=O)c2ccc(Cl)cc2)CC1	i	-16	-12	-7	-3	-1	-4	48

Overlap with the part before: 2 compounds; new compounds follow.
SMILES	Rce1 inh	UUG fidelity	eIF4H inh	MT1-MMP act inh	MT1-MMP act inh RFP	HIV Env fusion	PABP FP inh	CSC inhib	others
Cc1c(NC(C)c2ccccc2O)c(=O)n(-c2ccccc2)n1C (configuration not stated)	i	4	-11	10	0	nt	-3	-3
CN1CCN(CC(C)(C)NS(=O)(=O)c2ccc(Cl)cc2)CC1	i	-16	-12	-7	-3	-1	-4	48
CC(=O)c1csc(-c2ccccc2)n1	i	nt	3	-6	-6	-13	-3	-5
O=C(CCC(=O)Nc1ccccc1)N/N=C/c1ccncc1	i	1	nt	3	2	-6	nt	-14
Cc1ccccc1C1=Nn2c(nnc2-c2ccco2)SC1	i	-11	-6	1	3	3	-10	-10
O=C(NCc1ccccn1)c1ccc(Cl)c(S(=O)(=O)N2CCCCCC2)c1	i	-27	-5	2	-15	-6	-6	9

Screening data (PubChem BioAssay)
